Vaccinia inh: Vaccinia orthopox stage-specific inhibition | Vaccinia-infected cells, mCherry/Venus stage reporter fluorescence; hits give low values; some inactives read as strong as hits | activity change (mCherry), % (test concentration not listed) | 89,000 tested, 0.01% active | AID 1053133;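 active = mCherry past -33% and 40 or more points under the early reporter, replicates agreeing; inconclusive = past -33% without that gap or agreement; tested in A549 cells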;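 also: scaled between vehicle wells and reference inhibitor wells; 23 nL library stock went into each well; one replicate is shown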
Vaccinia inh Venus: further read-out of Vaccinia inh, marked with its call; activity change (Venus), %; measured here: Venus reporter, other viral stage;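 negative = less Venus signal; first of two replicates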
* = called active by the depositor; ? = inconclusive; / = no result given. An excerpt; rates above refer to the full screens.

SMILES	Vaccinia inh	Vaccinia inh Venus
CCCC#Cc1cnc2c(c1)C(=O)N([C@H](C)CO)C[C@@H](C)[C@H](CN(C)S(C)(=O)=O)O2	14.9	7.3
COc1ccccc1S(=O)(=O)N[C@H]1C=C[C@H](CC(=O)N2CCOCC2)O[C@@H]1CO	-4.0	-7.9
CCNC(=O)C[C@H]1C=C[C@@H](NC(=O)C2CCOCC2)[C@@H](CO)O1	5.7	7.7
C[C@H]1CN([C@@H](C)CO)C(=O)c2cc(NC(=O)C3CCCCC3)ccc2O[C@@H]1CN(C)C(=O)Nc1cccc2ccccc12	10.1	7.2
COc1ccc(NC(=O)N(C)C[C@H]2Oc3ccc(NC(=O)NC(C)C)cc3C(=O)N([C@@H](C)CO)C[C@H]2C)cc1	21.3	11.7
C[C@@H]1CCCCO[C@H](CN(C)S(=O)(=O)c2ccc(Cl)cc2)[C@@H](C)CN([C@@H](C)CO)C(=O)c2cc(NC(=O)Nc3cccc4ccccc34)ccc2O1	13.7	8.4
CN(C)CC#Cc1cccc(-c2nc(C(=O)N[C@@H]3CCN(Cc4ccccc4)C3)cc3c2[C@@H](CCO)N(S(=O)C(C)(C)C)C3)c1 (stereo not given in full)	10.2	3.2
COc1ccc(S(=O)(=O)Nc2ccc3c(c2)C(=O)N([C@H](C)CO)C[C@H](C)[C@H](CN(C)S(=O)(=O)c2ccc(C)cc2)OCCCC[C@@H](C)O3)cc1	20.2	-1.3
O=C(C[C@H]1CC[C@H](NC(=O)c2ccc3c(c2)OCO3)[C@@H](CO)O1)NCc1ccc(Cl)cc1	-10.8	5.9
COc1ccccc1NC(=O)N1C[C@@H](C)[C@H](OC)CN(C)C(=O)c2ccc(NC(=O)c3cnccn3)cc2OC[C@H]1C	-13.0	-1.5
C[C@@H]1CN([C@H](C)CO)C(=O)c2cc(NC(=O)CCCN(C)C)ccc2O[C@@H]1CN(C)Cc1ccc2c(c1)OCO2	12.8	11.1
CO[C@H]1CN(C)C(=O)c2ccc(NC(=O)c3ccc(F)cc3)cc2OC[C@H](C)N(C(C)=O)C[C@@H]1C	7.2	0.2
COc1ccccc1NC(=O)N1CCCCN2[C@H](CO)[C@@H](c3ccc(C#CC4CC4)cc3)[C@H]2C1	?	/
C[C@@H]1CCCCO[C@H](CN(C)C(=O)Nc2cccc3ccccc23)[C@@H](C)CN([C@H](C)CO)C(=O)c2cc(NC(=O)Nc3ccc(F)cc3)ccc2O1	36.2	9.5
CC(C)C(=O)Nc1ccc2c(c1)C(=O)N(C)[C@H]1CC[C@H](CC(=O)Nc3ccccc3)O[C@@H]1CO2	4.3	2.1
C[C@@H]1CN([C@H](C)CO)C(=O)c2cc(-c3ccncc3)cnc2O[C@@H]1CN(C)C(=O)C1CCOCC1	21.8	19.8
C/C=C/c1ccc2c(c1)O[C@@H](CN(C)C(=O)NC1CCCC1)[C@H](C)CN([C@H](C)CO)S2(=O)=O	15.1	7.7
COc1ccc(CN(C)C[C@H]2Oc3ccc(NS(=O)(=O)c4cccs4)cc3C(=O)N([C@H](C)CO)C[C@H]2C)cc1	-6.6	-2.7
CN(C)CC(=O)N1[C@@H](CO)[C@@H](c2ccccc2)C12CN(C(=O)c1ccccc1)C2	6.9	13.0
CN1C(=O)c2cc(NC(=O)C3CCOCC3)ccc2OC[C@H]2O[C@H](CC(=O)NCC3CCCCC3)CC[C@H]21	15.6	7.5
O=C(C[C@@H]1CC[C@H]2[C@@H](COC[C@@H](O)CN2S(=O)(=O)c2ccc(F)cc2)O1)N[C@H]1CCN(Cc2ccccc2)C1	-17.0	-14.9
O=C(Nc1ccc(F)cc1)N1CCCCN2[C@H](CO)[C@@H](c3ccc(C#CC4CC4)cc3)[C@@H]2C1	?	/
O=C(NCC[C@H]1CC[C@@H](NC(=O)C2CCC2)[C@@H](CO)O1)c1cc(Cl)cc(Cl)c1	-0.2	-4.4
O=C(C[C@@H]1CC[C@H](NC(=O)Nc2ccc(C(F)(F)F)cc2)[C@H](CO)O1)NCCN1CCCC1	-5.9	-0.9
CC(C)NC(=O)N(C)C[C@H]1Oc2ncc(C3=CCCCC3)cc2C(=O)N([C@H](C)CO)C[C@H]1C	16.6	5.3
C[C@H](CO)N1C[C@H](C)[C@@H](CN(C)S(=O)(=O)CC(F)(F)F)OCc2ccccc2-c2c(n(C)c3ccccc23)C1=O	?	/
CC(=O)N(C)C[C@H]1Oc2cc(/C=C/c3ccccc3)ccc2S(=O)(=O)N([C@@H](C)CO)C[C@H]1C	-2.4	-12.1
CN1C[C@H]2[C@@H](c3ccccc31)[C@H](CO)N2C(=O)Nc1ccc(F)cc1	-2.7	-0.5
C[C@H](NC(=O)C[C@@H]1C[C@@H]2c3cc(NC(=O)Cc4ccncc4)ccc3O[C@@H]2[C@H](CO)O1)c1ccccc1	-2.6	8.7
C[C@@H]1CN([C@@H](C)CO)C(=O)c2cc(C#CCc3ccccc3)cnc2O[C@@H]1CN(C)Cc1cccc(F)c1	?	/
COc1ccc(C#Cc2cnc3c(c2)C(=O)N([C@H](C)CO)C[C@H](C)[C@@H](CN(C)C(C)=O)O3)cc1	14.3	17.7
C[C@H](CO)N1C[C@H](C)[C@@H](CN(C)S(=O)(=O)c2ccccc2F)Oc2ncc(C#Cc3ccncc3)cc2C1=O	-34.2	-21.2
CN1CCN(C(=O)C[C@H]2CC[C@H]3[C@@H](COc4ccc(NC(=O)c5cccs5)cc4C(=O)N3C)O2)CC1	16.6	13.8
CCS(=O)(=O)NCC[C@@H]1CC[C@@H](NC(=O)C2CCCC2)[C@H](CO)O1	-10.9	-0.6
O=C(C[C@H]1C=C[C@@H](NC(=O)Nc2ccc(C(F)(F)F)cc2)[C@@H](CO)O1)NCc1ccccn1	15.2	12.8
C[C@@H]1CCCCO[C@@H](CN(C)C(=O)Nc2ccc(F)cc2)[C@@H](C)CN([C@H](C)CO)C(=O)c2cc(NC(=O)Nc3ccc(C(F)(F)F)cc3)ccc2O1	19.9	11.0
CCC(=O)N1CC2(C1)CN(Cc1cccc(F)c1)[C@H](CO)c1c2c2ccc(OC)cc2n1C	-0.8	-1.4
COc1ccc(S(=O)(=O)Nc2ccc3c(c2)C(=O)N([C@@H](C)CO)C[C@@H](C)[C@H](CN(C)S(=O)(=O)c2c(C)noc2C)OCCCC[C@@H](C)O3)cc1	?	/
C[C@H](CO)N1C[C@H](C)[C@@H](CN(C)S(=O)(=O)c2ccc(F)cc2)OCCCC[C@H](C)Oc2ccc(NC(=O)Nc3cccc4ccccc34)cc2C1=O	0.9	3.4
CO[C@H]1CN(C)C(=O)c2ccc(NC(C)=O)cc2OC[C@@H](C)NC[C@@H]1C	3.5	7.5
O=C(C[C@@H]1C[C@@H]2c3cc(NC(=O)NC4CCCC4)ccc3O[C@@H]2[C@@H](CO)O1)NCc1ccc(Oc2ccccc2)cc1	9.8	7.0
O=C(C[C@H]1CC[C@@H]2[C@H](COC[C@H](O)CN2CC2CCCCC2)O1)NCC1CC1	-6.5	-8.6
Cc1noc(C)c1NC(=O)N(C)C[C@H]1Oc2ccc(NS(=O)(=O)c3ccccc3)cc2C(=O)N([C@H](C)CO)C[C@@H]1C	28.9	13.9
CO[C@H]1CN(C)C(=O)c2ccc(NC(C)=O)cc2OC[C@@H](C)N(Cc2cc(F)ccc2F)C[C@H]1C	-11.5	-12.3
O=C(C[C@H]1CC[C@@H]2[C@H](COC[C@H](O)CN2S(=O)(=O)c2ccc(Oc3ccccc3)cc2)O1)Nc1ccccc1	-19.4	-17.2
CC(C)C(=O)Nc1ccc2c(c1)C(=O)N(C)[C@H]1CC[C@@H](CC(=O)NC3CCCC3)O[C@@H]1CO2	-3.4	-7.4
O=C(CN1CCOCC1)NCC[C@@H]1CC[C@H](NS(=O)(=O)c2ccc(Cl)cc2)[C@@H](CO)O1	-7.1	6.6
C[C@@H]1CN([C@H](C)CO)S(=O)(=O)c2ccc(-c3cccc(C#N)c3)cc2O[C@H]1CN(C)C(=O)C1CC1	-8.1	-13.6

Complete entries from above. Order of values: Vaccinia inh | Vaccinia inh Venus
Listed for C[C@@H]1CN([C@H](C)CO)S(=O)(=O)c2ccc(-c3cccc(C#N)c3)cc2O[C@H]1CN(C)C(=O)C1CC1 = -8.1 | -13.6
Listed for COc1ccc(S(=O)(=O)Nc2ccc3c(c2)C(=O)N([C@@H](C)CO)C[C@@H](C)[C@H](CN(C)S(=O)(=O)c2c(C)noc2C)OCCCC[C@@H](C)O3)cc1 = ? | /
Listed for O=C(C[C@H]1CC[C@@H]2[C@H](COC[C@H](O)CN2CC2CCCCC2)O1)NCC1CC1 = -6.5 | -8.6

An excerpt of these results, with values under each structure:
Each structure is followed by: Vaccinia inh | Vaccinia inh Venus
O=C(C[C@@H]1C[C@@H]2c3cc(NC(=O)NC4CCCC4)ccc3O[C@@H]2[C@@H](CO)O1)NCc1ccc(Oc2ccccc2)cc1
→ 9.8 | 7.0
O=C(C[C@H]1CC[C@@H]2[C@H](COC[C@H](O)CN2CC2CCCCC2)O1)NCC1CC1
→ -6.5 | -8.6
Cc1noc(C)c1NC(=O)N(C)C[C@H]1Oc2ccc(NS(=O)(=O)c3ccccc3)cc2C(=O)N([C@H](C)CO)C[C@@H]1C
→ 28.9 | 13.9
CO[C@H]1CN(C)C(=O)c2ccc(NC(C)=O)cc2OC[C@@H](C)N(Cc2cc(F)ccc2F)C[C@H]1C
→ -11.5 | -12.3

Following part:
SMILES	Vaccinia inh	Vaccinia inh Venus
COc1ccc2c3c([nH]c2c1)[C@@H](CO)N(C(=O)Nc1ccc(F)cc1)CC31CCN(S(=O)(=O)c2cn(C)cn2)CC1	21.5	9.7
O=C(C[C@@H]1CC[C@@H]2[C@H](COC[C@H](O)CN2Cc2cccc(-c3ccncc3)c2)O1)N1CCCCC1	?	/
O=C(C[C@H]1CC[C@H]2[C@@H](COC[C@H](O)CN2CC2CC2)O1)NCc1ccc(Cl)cc1	-4.2	1.8
CCCc1cn(CC[C@@H]2CC[C@@H](NC(=O)C3CCC3)[C@H](CO)O2)nn1	6.7	3.3
C[C@H](CO)N1C[C@H](C)[C@@H](CN(C)S(=O)(=O)c2cn(C)cn2)Oc2ccc(NC(=O)c3ccncc3)cc2C1=O	3.3	3.4
CCCNC(=O)N1[C@@H]2CN(C(=O)C3CC3)c3ccccc3[C@@H]2[C@@H]1CO	-6.5	6.1
Cc1noc(C)c1NC(=O)Nc1cccc2c1O[C@H](CN(C)C(=O)Nc1cccc3ccccc13)[C@@H](C)CN([C@@H](C)CO)C2=O	?	/
CO[C@H]1CN(C)C(=O)c2ccc(NC(=O)C3CCC3)cc2OC[C@@H](C)NC[C@H]1C	8.1	-0.7
CC(C)NC(=O)N(C)C[C@H]1Oc2ccc(NS(=O)(=O)c3cn(C)cn3)cc2C(=O)N([C@@H](C)CO)C[C@@H]1C	7.7	6.4
Cc1noc(C)c1S(=O)(=O)N(C)C[C@@H]1OCCCC[C@@H](C)Oc2ccc(NC(=O)Nc3ccc(F)cc3)cc2C(=O)N([C@@H](C)CO)C[C@@H]1C	6.0	5.4
C[C@H]1CCCCO[C@H](CN(C)C(=O)C2CCCCC2)[C@@H](C)CN([C@@H](C)CO)C(=O)c2cc(NS(C)(=O)=O)ccc2O1	6.9	16.7
COc1ccc(CN(C)C[C@@H]2Oc3ccc(NC(=O)C4CCCCC4)cc3CC(=O)N([C@H](C)CO)C[C@@H]2C)cc1	2.4	15.2
C[C@H](CO)N1C[C@H](C)[C@@H](CN(C)Cc2ccc(C(=O)Nc3ccccc3N)cc2)Oc2ccc(NC(=O)Cn3cnnn3)cc2CC1=O	20.3	14.4
C[C@@H]1CCCCO[C@H](CN(C)S(=O)(=O)c2cn(C)cn2)[C@@H](C)CN([C@@H](C)CO)C(=O)c2cc(NC(=O)NC3CCCCC3)ccc2O1	32.9	10.6
N#Cc1cccc(-c2ccc([C@@H]3[C@@H](CO)N4CCCCN(C(=O)Cc5ccccc5)C[C@@H]34)cc2)c1	-9.3	-6.8
O=C(NCC[C@H]1CC[C@H](NC(=O)C2CCOCC2)[C@H](CO)O1)c1ccc(F)cc1	-13.4	-4.6
CCCC(=O)Nc1ccc2c(c1)OC[C@H](C)N(Cc1ccc(-c3ccccn3)cc1)C[C@@H](C)[C@H](OC)CN(C)C2=O	-26.2	-33.2
Cc1ccc(-c2ccc3c(c2)O[C@H](CN(C)C(=O)Nc2ccc(F)cc2)[C@@H](C)CN([C@@H](C)CO)S3(=O)=O)cc1	?	/
COCC#Cc1cnc2c(c1)C(=O)N([C@H](C)CO)C[C@H](C)[C@@H](CN(C)C(=O)Nc1c(C)noc1C)O2	20.5	12.9
C[C@@H]1CN([C@@H](C)CO)C(=O)c2cc(NC(=O)C3CC3)ccc2O[C@@H]1CN(C)Cc1ccc(C(F)(F)F)cc1	-34.7	-28.5
C[C@@H]1CN([C@@H](C)CO)C(=O)Cc2cc(NS(=O)(=O)c3cccs3)ccc2O[C@@H]1CN(C)S(=O)(=O)c1cn(C)cn1	0.2	2.9
Cc1noc(C)c1NC(=O)N[C@@H]1CC[C@H](CC(=O)NCCCN(C)C)O[C@@H]1CO	-2.0	9.3
COc1ccccc1-c1ccccc1[C@H]1[C@@H](C#N)N(C(=O)CN(C)C)[C@@H]1CO	15.4	11.6
COCC(=O)N1[C@H](C#N)[C@@H](c2ccccc2)[C@H]1CO	17.0	2.7
Cc1noc(C)c1S(=O)(=O)N(C)C[C@@H]1Oc2c(cccc2N(C)C)C(=O)N([C@@H](C)CO)C[C@H]1C	9.1	-3.1
C[C@@H]1CN([C@@H](C)CO)C(=O)Cc2cc(NC(=O)NC3CCCCC3)ccc2O[C@@H]1CN(C)C(=O)Nc1ccc(C(F)(F)F)cc1	12.1	5.6
C[C@H](CO)N1C[C@H](C)[C@@H](CN(C)Cc2ccc(Oc3ccccc3)cc2)Oc2c(NC(=O)c3ccc(-c4nccs4)cc3)cccc2C1=O	8.8	-1.2
